# gsp ag: qHTS for Agonist of gsp, the Etiologic Mutation Responsible for Fibrous Dysplasia/McCune-Albright Syndrome: qHTS. gsp mutant cells, cAMP HTRF, 30 min; control for the full effect not named in the record. Potency, µM (top dose mostly 76.9 µM), for inactives: at the highest dose activation (cAMP increase), most hits filed as activators. 0.13% of 340,000 active; active = well fitted activation curve with a large enough effect; inconclusive = small, poorly fitted or top-dose-only effect, or another doubt; inactive = no such curve, though single readings can be large or run the other way; cell line not stated here;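 note: phosphodiesterase inhibitor Ro 20-1724 added with compounds to block cAMP breakdown; potency is the fitted concentration of half-maximal effect; nearly all actives have a fitted effect of over 60% in size; about a fifth of the inactives were tested at one dose only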
#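 Cells stably selected in G418 were plated at 2000/well, grown 16-24 hr, then given compounds in DMSO with the PDE inhibitor […] (300 uM solution added) for 30 min at 37C; cAMP was read by HTRF.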
# Menin MLL FP FL: qHTS Assay for Inhibitors Targeting the Menin-MLL Interaction in MLL Related Leukemias: Competition With Fluorescein Labeled MLL-derived Peptide; Fluorescence polarization, fluorescein-MLL peptide displacement from menin; FP activity change, % at 61.4 µM; 290,000 tested, under 10 active; AID 1766, 2009; inconclusive = falling polarisation curve, or a change in total fluorescence; inactive = total fluorescence flat and polarisation flat or rising; no compound was filed as active; the % refers to the polarisation; negative = inhibition;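 note: % of control where 0% means no effect; inhibitors lower the polarisation; unlabelled MLL peptide was the positive control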
# gsp antag: qHTS for Antagonists of gsp, the Etiologic Mutation Responsible for Fibrous Dysplasia/McCune-Albright Syndrome: qHTS. gsp-mutant cells, cAMP HTRF, 30 min; control for the full effect not named in the record. Potency, µM (titrated, usually from 76.9 µM), for the others: top-dose activity change, negative = inhibition, hits mostly inhibitors. 0.4% of 340,000 active. AID 624288, 2012; active = falling curve of any shape with a large fitted effect; inconclusive = falling curve, mostly with a smaller effect; inactive = flat or rising curve; cell line not stated here;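 note: intracellular cAMP measured with PDE inhibitor Ro 20-1724 present during compound exposure; potency is the fitted concentration of half-maximal effect; % is set by controls: 0 for no effect and ±100 for the full control effect; nearly all actives have a fitted effect of over 65% in size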
#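 Cells, 2000/well, grown 16–24 h in DMEM 10% FBS with 0.5 mg/ml G418, then compounds plus […] (300 uM addition stock), 30 min at 37C. cAMP read by HTRF (cAMP-d2 and anti-cAMP antibody-K in lysis buffer) after 30 min RT.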
# TRPML1 agonist: qHTS for Agonists of the Human Mucolipin Transient Receptor Potential 1 (TRPML1); Mucolipin-1 (Homo sapiens), Q9GZU1; TRPML1-expressing cells, Ca2+ dye fluorescence, FDSS; host cell line not named in the record; reference of the full effect not given here; activation, % (no concentration beside the values); 0.12% of 410,000 active; in the data active = activation above about 50%; inconclusive = about 30% to 50%; inactive = below about 30%; note: 0% is about no effect; the text of the record puts the active cut at 80%
# Target sequence (Q9GZU1 whole entry, looked up): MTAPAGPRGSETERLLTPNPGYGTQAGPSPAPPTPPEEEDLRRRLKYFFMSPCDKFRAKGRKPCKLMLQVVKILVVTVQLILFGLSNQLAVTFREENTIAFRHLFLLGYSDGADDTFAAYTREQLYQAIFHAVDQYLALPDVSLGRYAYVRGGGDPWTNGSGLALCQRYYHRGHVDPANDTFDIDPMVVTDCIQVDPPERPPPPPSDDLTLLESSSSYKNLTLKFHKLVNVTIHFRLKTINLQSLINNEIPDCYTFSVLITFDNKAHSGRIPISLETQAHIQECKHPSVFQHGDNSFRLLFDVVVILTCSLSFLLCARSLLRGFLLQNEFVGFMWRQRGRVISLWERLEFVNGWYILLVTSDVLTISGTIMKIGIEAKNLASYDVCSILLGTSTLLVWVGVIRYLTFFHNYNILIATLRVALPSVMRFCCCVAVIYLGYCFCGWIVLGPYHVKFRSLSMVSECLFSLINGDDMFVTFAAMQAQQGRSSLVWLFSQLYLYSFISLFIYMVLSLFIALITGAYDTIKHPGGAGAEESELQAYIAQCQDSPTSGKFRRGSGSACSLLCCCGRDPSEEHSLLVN
#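 Calcium fluorescence on an FDSS kinetic reader gave the read-out. Tet-induced TRPML1-DL cells were plated overnight, dye-loaded (Ca8 with quencher, 45-90 min, room temperature, dark), then read 110 s after compound addition, and again 110 s after 4uM final 54-4 (EC80).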
# TRPML1 inh: qHTS for Inhibitors of the Human Mucolipin Transient Receptor Potential 1 (TRPML1); Mucolipin-1 (Homo sapiens), Q9GZU1; TRPML1-inducible cells, Ca2+ dye fluorescence, FDSS; hits give low values; inhibition of EC80 agonist-evoked calcium signal; activity change, negative = inhibition, % (concentration not given with the values); 0.02% of 390,000 active; in the data active means activity change below about -50%; inconclusive means about -30% to -50%; inactive means above about -30%;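 note: stimulus is agonist 54-4 at its EC80 concentration; % is set by controls: 0 for no effect and ±100 for the full control effect; compound concentration not given in the record; the text of the record puts the active cut at -80%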
#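 Tet-induced TRPML1-DL cells loaded with Ca8 no-wash calcium dye were read kinetically on FDSS. Compound addition was followed by EC80 agonist 54-4 (4 uM final); inhibition was read over 110 s.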
# ClpP mod: qHTS Assay for Activators of ClpP; Potency, µM (highest dose often 57.5 µM), inactives show top-dose activity change, negative = active; 1.9% of 340,000 active; AID 651965, 2013; purified B. subtilis ClpP, FRET peptide cleavage, 20 min; ATP-dependent Clp protease proteolytic subunit (Bacillus subtilis (strain 168)), P80244; active = well fitted falling curve with a large enough effect; inconclusive = small, poorly fitted or top-dose-only effect; inactive = no such curve, though single readings can be large or run the other way; note: potency is the fitted concentration of half-maximal effect; the source files actives as falling curves though it sought activators and does not explain the sign; nearly all actives have a fitted effect of over 65% in size; many hits overshoot -100%
# Target sequence (P80244 whole entry, looked up): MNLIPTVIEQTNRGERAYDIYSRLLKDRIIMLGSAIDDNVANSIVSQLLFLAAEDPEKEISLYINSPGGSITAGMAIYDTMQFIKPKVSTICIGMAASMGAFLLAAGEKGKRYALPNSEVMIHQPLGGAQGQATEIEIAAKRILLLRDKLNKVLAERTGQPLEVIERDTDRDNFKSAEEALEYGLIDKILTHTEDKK
#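 Purified B. subtilis ClpP, 10 microg/mL final in Tris/HCl pH8 with KCl, BSA, glycerol and Tween-20, cleaved an Abz/nitrotyrosine-quenched decapeptide. Fluorescence (ex 320, em 430) was read at 0 and 20 min at room temperature. Delta was normalized to 5.8 microM ADEP and DMSO/no-enzyme controls.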
# * hit, by the source's call; u = inconclusive; x = no result given; & = joins results of further samples; [ ] = dose if it differs, or a comment.
SMILES	gsp ag	Menin MLL FP FL	gsp antag	TRPML1 agonist	TRPML1 inh	ClpP mod
Cc1cn2c(=O)cc(COC(=O)c3cccc(NC(=O)COc4ccccc4Cl)c3)nc2s1	x	x	x	-0.9	9	-4.6%
CC(C)Cc1c2c([nH]c(=S)c1C#N)CCCC2	u	2.3	-3%	-0.4	-10	-2.9%
N#C/C(=C\c1cc(Cl)ccc1O)C(=O)NC1CCCCC1	11%	u	15%	0.8	3	-1.9%
O=C(NNC(=O)c1cc(Cl)ccc1[N+](=O)[O-])c1csc(N2CCOCC2)n1	-8%[15.4 µM]	x	-25%	-0.7	-4	x
Cc1ccc(N2CC(C(=O)Nc3nnc(SCCC4OCCO4)s3)CC2=O)cc1C (configuration not stated)	2%[15.4 µM]	x	-13%	0.3	3	-2.1%
COc1cccc(NC(=O)c2c(-c3ccc(C)cc3)nnc3ccccc23)c1	x	x	x	1.5	1	0.0%
CCc1ccc(CNC(=O)CN2C(=O)C3CCCCN3c3ccc(C(=O)N4CCCC4)cc32)cc1 (configuration not stated)	x	x	x	-1.0	22	-2.9%
Cc1ccn(CCNC(=O)C2CCC(=O)N(Cc3ccc(Cl)cc3)C2)n1 (configuration not stated)	u	x	4%	-0.2	2	-4.1%
O=C(NCCN1CCOCC1)c1ccc2c(c1)N(Cc1ccc(F)cc1)C(=O)CS2	u	1.6	2%	-0.8	-7	1.8%
O=C(NCc1ccccc1)C(C(=O)c1ccc(F)cc1)n1ccccc1=O (configuration not stated)	9%	0.4	2%	1.3	22	-4.0%
Cc1c(Cl)c([N+](=O)[O-])nn1CCCC(=O)NCCc1ccccc1	u	-1.4	-3%	-0.8	-14	-3.1%
O=C1CCc2ccc(NC(=O)C3CC3)cc2N1	-13%[15.4 µM]	-0.4	8%	-0.1	7	x
O=C([C@@H]1CC=C[C@@H]2CCN(C3CCCCC3)C(=O)[C@@H]21)N1CCN(c2ccccc2)CC1	0%	x	-4%	-0.1&-0.6	2	0.3%&-1.2%
CCOCCCNS(=O)(=O)Cc1ccccc1	14%	-3.7	4%	-0.7	12	0.4%
Cc1nn(C)c(C)c1/C=N/NC(=O)CCn1cc([N+](=O)[O-])cn1	8%	9.6	3%	-0.2	12	0.6%
C=CCn1c(SCCN2CCCCC2)nc2c1c(=O)[nH]c(=O)n2C	-36%[inhibitor]	1.8	u	-0.7	-4	-1.1%
Cc1cc(C)n(C(=O)N(c2ccccc2)c2ccccc2)n1	14%	0.5	3%	x	x	1.6%
Cc1c(Cc2c(Cl)cccc2Cl)c(=O)ccn1C(C)c1ccccc1 (configuration not stated)	3%	7.2	u	0.0	16	0.2%
Cc1ccccc1NC(=O)C1CCCN(S(=O)(=O)c2c(C)noc2C)C1 (configuration not stated)	0%	0.2	6%	-0.2	3	0.3%
CCCC(=O)NNc1c2ccccc2nc2ccccc12	-32%	5.2	-19%	-1.0	-5	6.0%
Cn1cnc(S(=O)(=O)N2CCN(c3cccc(C(F)(F)F)c3)CC2)c1	u	-0.3	11%	-0.2	2	-1.3%
Cc1ccccc1N1CCN(C2=NC(=O)/C(=C\c3cccs3)S2)CC1	u	3.4	-17%	8.6	51	-0.3%
CCOC(=O)N1CCN(S(=O)(=O)c2ccc(C(=O)N(CCCN(C)C)c3nc4c(C)c(C)ccc4s3)cc2)CC1	18%	x	7%	-0.5	-11	-1.1%
O=C(Cn1c2[n+](c3ccc(C(F)(F)F)cc31)CCCCC2)c1cccc([N+](=O)[O-])c1	0%	-1.8	8%	0.1	-1	1.1%
N#Cc1nc(-c2cccs2)oc1NCc1ccco1	19%	3.3	-5%	1.3	-3	u
N#Cc1c(NC(=O)CSc2ccccn2)oc(-c2ccccc2)c1-c1ccccc1	-14%	6.4	-20%	-0.4	-9	-8.7%
Cc1ccc(Nc2c([N+](=O)[O-])ccc3nonc23)c(C)c1	8%	-3.0	3%	2.7	4	x
CCOC(=O)Cc1csc(NC(=O)COc2ccc(N(C)S(=O)(=O)c3cccs3)cc2)n1	-43%[inhibitor]	1.8	35µM*	0.7	16	0.5%
O=C(O)C1C2C=CC(C2)C1C(=O)NCc1ccccc1 (configuration not stated)	-61%[inhibitor]	x	6%	-0.3	0	-0.2%
O=S(=O)(c1ccccc1)N1CCN(Cc2cccc(Cl)c2)CC1	-46%[inhibitor]	-1.0	13%	-0.4	2	-0.6%
CC1(C)CC2(OC2c2ccccc2[N+](=O)[O-])C(=O)c2ccccc21 (configuration not stated)	-19%	x	x	0.0	7	1.0%
CNc1oc(Cc2ccccc2)nc1S(=O)(=O)c1ccc(Cl)cc1	-9%	1.7	-2%	1.0	3	0.2%
COc1ccc(OC)c(NC(=O)CC2(CC(=O)O)CCCC2)c1	-4%[15.4 µM]	x	-10%	0.0	20	x
Cc1nc2ccn(Cc3cccnc3)c(=O)c2cc1C(=O)NCc1ccccc1	x	x	x	0.0	5	u
COC(=O)CCCC(=O)N1CCCC(C(=O)c2ccc(-c3ccccc3)cc2)C1 (configuration not stated)	-19%	-2.0	-23%	-0.6	19	0.1%
O=C(Nc1nnc(C2CC2)s1)c1ccncc1	-29%	-0.6	2%[15.4 µM]	1.4	7	-0.3%
COCCn1ccc2c(OCC(=O)NCc3ccc(F)cc3)cccc2c1=O	x	x	x	-0.9	3	-19%
COc1ccc(C2(c3ccc(OC)cc3)NC(=O)N(CC(=O)N3CCOCC3)C2=O)cc1	-11%	x	5%	0.0	0	-0.1%
Cc1ccc(S(=O)(=O)N(CC(=O)NCc2ccco2)Cc2ccccc2F)cc1	-38%[inhibitor]	4.2	-9%	3.2	25	-3.0%
Brc1ccc2ncc(Br)cc2c1	50%[15.4 µM]	5.2	30%	-0.2	-11	u
CCOc1ccc(N(C(=O)c2snc(C(N)=O)c2N)C(C(=O)NCC2CCCO2)c2c[nH]c3ccccc23)cc1 (configuration not stated)	-17%[15.4 µM]	1.0	-20%	1.1	-5	x
COc1ccc(-c2csc3nc[nH]c(=O)c23)cc1OC	-15%[15.4 µM]	1.2	0%	-0.8	11	x
CC(C)(C)NC(=O)NC(=O)CSc1nnc2ccccn12	u	6.7	17%	-0.8	-1	-3.7%
Cc1ccc(OCC(=O)NC(=S)Nc2cccc(C)n2)cc1	-9%[15.4 µM]	2.0	14%	-0.4	0	-0.2%
CCCCN1C(=O)C(CC(=O)NCC)SC1=Nc1ccccc1 (configuration not stated)	6%	7.1	-4%	0.6	-18	0.6%
CCOc1ccc(-c2ccc(SCC(=O)NC3CCCCC3)nn2)cc1	-1%	-0.1	7%	2.1	11	-1.5%
Cc1cc(Cl)ccc1C(=O)C1CCCN(C(=O)c2n[nH]c3c2CCCC3)C1 (configuration not stated)	-37%[inhibitor]	1.6	-16%	1.1	16	x
Cc1ccc(OC(=O)CCC(=O)Oc2ccc(C)cc2C)c(C)c1	19%	x	6%	3.2	21	x
Cc1ccc(S(=O)(=O)Nc2nc(C)c(NC(=O)OCCCl)s2)cc1	u	-2.2	8%	-0.2	3	1.2%
O=C(Cc1cccs1)Nc1nncs1	-15%	4.6	4%	0.0	5	-0.1%

# Additional records follow:
SMILES	gsp ag	Menin MLL FP FL	gsp antag	TRPML1 agonist	TRPML1 inh	ClpP mod
Cc1ccc(CS(=O)Cc2ccc(C(=O)NC3CCCCCC3)o2)cc1 (configuration not stated)	14%	x	15%	-1.1	-10	0.2%
CCc1ccc(S(=O)(=O)c2cn(C)c3cc(N4CCOCC4)c(F)cc3c2=O)cc1	x	x	x	-0.5	-1	u
O=[N+]([O-])c1ccc(-c2ccc(S(=O)(=O)NCCN3CCCC3)cc2)cc1	-1%	2.9	-3%	0.5	-2	x
O=C(c1ccc(N2CCCC2=O)cc1)N1CCN(c2ccccc2)CC1	-40%[inhibitor]	3.5	2%	-0.2	3	-2.4%
CCOC(=O)CC1OC(=O)c2cc3c(cc21)C(=O)OC3CC(=O)OCC (configuration not stated)	-8%[15.4 µM]	4.8	6%	-0.6	6	-0.3%
CC1(C)CC(=O)C(C=NCCN2CCN(C(=O)C34CC5CC(CC(C5)C3)C4)CC2)=C(O)C1	-4%	-2.2	-11%	-0.7	-6	0.1%
Nc1c(N(CCO)C(=O)C2CCCC2)c(=O)[nH]c(=O)n1Cc1ccccc1	3%	x	11%	-1.1	17	-0.8%
O=C(NNc1ccccn1)c1ccccc1CC[N+](=O)[O-]	0%[15.4 µM]	-1.7	1%	0.3	2	x
CCN(CC(=O)Nc1ccc2c(c1)OCCO2)C(=O)CCc1ccc(OC)cc1	-11%	x	-2%	-0.4	40	0.5%
C1CCN(CCC2CCCCN2)CC1 (configuration not stated)	1%	x	x	0.1	-1	-9.7%
Nc1ncnc2c1nc(Sc1ccc(Cl)cc1)n2[C@@H]1O[C@@H]2COP(=O)(O)O[C@H]2[C@H]1O	x	x	15%	1.0	-12	-1.0%
C=CCn1c(SCc2nc3c(c(=O)[nH]c(=O)n3CCCC)n2CCC)nnc1-c1ccccc1	-42%[inhibitor]	3.0	-8%	1.1	1	-3.4%
Cc1ccc(C(=O)O/N=C2\CC3CCC2(C)C3(C)C)cc1 (configuration not stated)	-37%[inhibitor]	-1.0	u	0.1	-3	1.1%
Oc1cccc(/C=N/N2CCN(c3ccccn3)CC2)c1	1%	1.6	-14%	-0.6	-2	0.9%
CC(=O)c1cn(-c2ccc(Cl)cc2)c(=O)[nH]c1=O	30%	-0.6	-2%	0.1	-7	x
Cn1c(O)c(N=NC(=O)Cc2c[nH]c3ccccc23)c2ccccc21	2%	x	u	3.1	28	3.2µM*
Cc1ccccc1SCC(=O)N1CCN(c2ccc(C(F)(F)F)cn2)CC1	-4%[15.4 µM]	8.1	0%	0.6	-6	-2.7%
C=CCc1cc(Cl)ccc1OCCOCCNC(C)CC (configuration not stated)	4%[15.4 µM]	-7.7	6%	1.9	-1	-0.6%
CC1CC(C)(C)CC2(C1)NC(=O)N(CC(=O)NC1CCCc3ccccc31)C2=O (configuration not stated)	1%	5.7	-1%	-0.6	31	-1.5%
COc1ccc(S(=O)(=O)N2CCC(C(=O)N3CCCCC3)CC2)cc1	-8%[15.4 µM]	0.1	8%	-0.9	-11	-1.5%
